# VDR inhibitor: blocks the human vitamin D receptor; Potency, µM, for inactives: max response, negative = inhibition, usual class: inhibitors; actives 0.93% (n = 400,000); AID 504847; VDR-SRC2-3 peptide fluorescence polarization, 2 h; active means well fitted inhibition curve with a large enough effect; inconclusive means small, poorly fitted or top-dose-only effect, or another doubt; inactive means no such curve, though single readings can be large or run the other way; further: series mostly up to about 120 µM
# Target sequence (P11473 whole entry, looked up): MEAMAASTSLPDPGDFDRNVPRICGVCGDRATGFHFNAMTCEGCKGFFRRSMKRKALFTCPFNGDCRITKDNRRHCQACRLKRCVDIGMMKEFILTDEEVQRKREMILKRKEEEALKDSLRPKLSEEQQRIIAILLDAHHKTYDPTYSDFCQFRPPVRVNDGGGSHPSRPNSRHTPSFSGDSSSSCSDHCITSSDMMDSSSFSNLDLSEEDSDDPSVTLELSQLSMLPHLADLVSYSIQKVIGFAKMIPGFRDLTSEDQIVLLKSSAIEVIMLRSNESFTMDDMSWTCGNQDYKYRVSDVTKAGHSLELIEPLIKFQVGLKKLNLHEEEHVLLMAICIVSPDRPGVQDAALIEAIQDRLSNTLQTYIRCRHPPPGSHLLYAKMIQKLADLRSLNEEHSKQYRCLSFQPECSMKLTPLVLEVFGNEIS
#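 Inhibition of the VDR/SRC2-3 peptide interaction is quantified by fluorescence polarization. Compounds (23 nl, pintool) incubate with the reagents for 2 hours at ambient room temperature.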
# The depositor's hits bear a star; ? = inconclusive; & = joins results of further samples; [ ] = dose if it differs, or a comment. On the % scale 0 is the no-effect control and ±100 the full control effect; potency means the concentration at half of the fitted maximal effect. Not all compounds are listed; the hit share may differ from the screen's.
structure,VDR inhibitor
COC(=O)c1ccccc1COn1c(=O)c(C)[n+]([O-])c2ccccc21,7%
Cc1cccc(OCCCSc2nc3ccc(C)cc3[nH]2)c1,-11%
CCOC(=O)N1CCN(CC(=O)NC(=O)Nc2ccc3c(c2)OCCO3)CC1,-6%
Nc1nc(N)c2c(n1)CCCC2,-21%
N/C(=N\OC(=O)Nc1ccccc1)c1cccc(C(F)(F)F)c1,-6%
CC(=O)Oc1cc(C(=O)OCC(=O)NC23CC4CC(CC(C4)C2)C3)cc(OC(C)=O)c1OC(C)=O,4%
COc1ccccc1CN1CC[C@@]2(CCCN(C(=O)c3cnccn3)C2)C1,?
CCc1ccc(-n2c(=O)c3ccc(C(=O)NCCc4ccccc4)cc3n(Cc3ccccc3C#N)c2=O)cc1,1%
N#Cc1ccccc1Oc1ccccc1C=O,-5%
O=C(NC(=S)NC1CCS(=O)(=O)C1)c1ccccc1F (configuration not stated),6%
COc1ccccc1CNC(=O)OCc1nccnc1C(=O)Nc1ccc(Br)cn1,7%
O=C(Oc1ccc(-c2cnc3ccccc3n2)cc1)c1cccc([N+](=O)[O-])c1,-9%
Cc1ccc(C2C(C#N)=C(N)Oc3n[nH]c(-c4cccs4)c32)s1 (configuration not stated),-10%
CCNC(=O)c1ccc(NC(=O)N2CCCCc3ccccc32)cc1,8%
Cc1ccc(Nc2nc(=O)c3cccnc3s2)cc1,22%
O=c1cc(CO)oc(CN2CCN(c3ccccc3)CC2)c1O,-13%
O=C(NCCc1cccs1)c1ccc(Cn2c(SCc3ccc(F)cc3)nc3cccnc32)cc1,8%
O=C(Nc1ccc(F)c(Cl)c1)C1CCCC1,14%
CCN(CC)c1nc(-c2ccc(Cl)cc2)cc(C(F)(F)F)c1C#N,7%
CCn1c2ccccc2c2cc(NC(=O)C3CCN(S(=O)(=O)c4cccs4)CC3)ccc21,-5%

# Other structures
structure,VDR inhibitor
Cc1ccc(S(=O)(=O)NCCC(=O)OCn2nnc3ccccc3c2=O)cc1,-3%
COc1ccc(C(=O)N2CCN(c3ccccc3)CC2)cc1S(=O)(=O)N1CCCC1,-2%
CCOC(=O)C1(CCOC)CCN(Cc2ccc3nonc3c2)CC1,30%[activator]
O=C(NCc1ccc2c(c1)OCO2)c1ccc2c(c1)C(=O)N(CC1CCCO1)C2=O (configuration not stated),11%
COC(=O)[C@H](Cc1ccccc1)NC(=O)NCCc1ccc(F)cc1,-8%
COc1ccccc1-c1noc(-c2ccco2)n1,8%
CCC(C)(C)n1nnnc1C(c1ccc(N(C)C)cc1)N1CCN(C2CCCCC2)CC1 (configuration not stated),-9%
O=C(COC(=O)CNC(=O)c1cccc([N+](=O)[O-])c1)NCc1ccco1,-1%
CN(C)S(=O)(=O)c1ccc(C(=O)Nc2nnc(SCc3ccccc3)s2)cc1,7%
CC(C)N=C(NC#N)SCc1ccccc1,-11%
c1coc(C2=NCCc3ccccc32)c1,-19%
COC(=O)[C@H](NC(=O)c1cc(-c2ccccc2)nc2ccccc12)c1ccccc1,10%&-17%&-23%
Cc1ccc(S(=O)(=O)N2CCC(C(=O)N[C@@H](C)C(=O)NC3CCCCC3)CC2)cc1,-22%
COc1ccc(N(C(=O)COc2c(C)cccc2C)S(=O)(=O)c2ccc(Cl)cc2)cc1,16%
CC(Oc1ccc(Br)cc1)C(=O)Nc1ccc(S(=O)(=O)Nc2nccs2)cc1 (configuration not stated),5%
N#Cc1ccsc1NC(=O)C1CCN(S(=O)(=O)c2cccs2)CC1,16%
Cc1ccc(-c2nc(CN(Cc3c(C)nn(C)c3C)C(C)C)c(C)o2)o1,9%
CCN1CCN(C(c2cccs2)C(C)NC(=S)Nc2cccc(C)c2C)CC1 (configuration not stated),-15%
COc1ccc(-c2csc(NC(=O)c3ccccc3NS(=O)(=O)c3ccc(F)c(F)c3)n2)cc1,-6%
O=C(Nc1cccc(-c2cn3cccnc3n2)c1)c1cccs1,-10%

# Carrying on:
structure,VDR inhibitor
CN(C)C(=O)N1CCN(c2nc(-c3ccccc3)cs2)CC1,-1%
CCNc1nc(NCc2ccccc2)nc(SCC(N)=O)n1,-20%
COC(=O)c1ccccc1N=Nc1c(N)n[nH]c1N,-1%
COCCNc1nc(-c2c(C)noc2C)nc2ccccc12,-14%
CC(=O)OCC(=O)[C@@]12OC3(CCCC3)O[C@@H]1C[C@H]1[C@@H]3CCC4=CC(=O)C=C[C@]4(C)[C@@]3(F)[C@@H](O)C[C@@]12C,7%
CCOC(=O)CC(=O)NC(CC(=O)OC)c1ccc(C(C)C)cc1 (configuration not stated),-19%
O=Nc1c(O)n(Cc2ccc(Cl)cc2)c2ccccc12,-23%
COc1ccc(NC2CCCN(C(=O)c3cccc(C)n3)C2)cc1OC (configuration not stated),-3%
COc1ccc(-c2cn3cc(C)ccc3n2)cc1F,?
COc1cccc(Nc2c(Nc3cccc(OC)c3)c(=O)c2=O)c1,-18%
Cc1cc(C)cc(NC(=S)N2CCC(NC(=O)c3ccc(F)cc3)CC2)c1,-15%
COc1ccc(/C=C(/C(=O)c2cccs2)N2C=CC=CC2=C(C#N)C#N)cc1,?
COc1ccc(C(C(=O)NC2CCCC2)N(C(=O)c2snc(-c3ccc(F)cc3)c2N)c2cccc(F)c2)cc1 (configuration not stated),0%
CSc1ccc(CN(C)C(=O)CNC(=O)c2ccc3c(c2)OCO3)cc1,-10%
CCc1ccc(NC(=O)CSC2=Nc3ccccc3C3=NC(CC(=O)NCc4cccs4)C(=O)N23)cc1 (configuration not stated),20%
CC(=O)c1ccc(NS(=O)(=O)c2cc3[nH]c(=O)c(=O)[nH]c3cc2C)cc1,13%
Cc1nnc(N2CCCCC2)c2ccccc12,8%
Cc1ccc(S(=O)(=O)N2CCOCC2)cc1NC(=O)CSc1n[nH]c(N)n1,-2%
CCC1CCCCN1CCCNC(=O)c1ccc2c(c1)N(Cc1ccccc1F)C(=O)c1ccccc1S2(=O)=O (configuration not stated),-18%
CC(NC(=O)c1cc(=O)[nH]c2ccccc12)c1ccccc1 (configuration not stated),11%

# Additional entries:
structure,VDR inhibitor
CCOCCCNC(=O)C1CCN(S(=O)(=O)c2c(C)noc2/C=C\c2ccc(OC)cc2)CC1,1%
O=C(O)c1ccc(CN2CCOCC2)o1,9%
O=C(CSc1n[nH]c(-c2cccs2)n1)NC1CCS(=O)(=O)C1 (configuration not stated),35%[activator]
COc1cccc(CN2CCNC(=O)C2CC(=O)N(Cc2cnn(C)c2)C(C)C)c1 (configuration not stated),15%
CCOc1ccc(C(=O)C(CCC(CN(C)C)C(=O)c2ccc(OCC)cc2)CN(C)C)cc1 (configuration not stated),?
O=C(Nc1nnc(-c2ccccn2)o1)c1ccc(Br)cc1,5%
CC1C(=O)N2CCCc3cc(S(=O)(=O)N(C)c4ccccc4)cc1c32 (configuration not stated),18%
O=C(NCC1CCCO1)c1ccc(CS(=O)(=O)c2c(Cl)cccc2Cl)o1 (configuration not stated),-20%
Cc1ccc(C)c(NC(=O)C(Cc2ccccc2)N2Cc3ccccc3C2=O)c1 (configuration not stated),34%[activator]
COc1cccc(OCC(O)CN2C(C)CCCC2C)c1 (configuration not stated),-13%
COc1cc(/C=N/NC(=O)C(C)Nc2n[nH]c(=O)[nH]c2=O)ccc1O (configuration not stated),-6%
COc1cc2c(cc1OC)C(c1cc3cc(OC)c(OC)cc3[nH]c1=O)N(C(=O)C1CC1)CC2 (configuration not stated),-15%
Cc1cc(=O)[nH]c(N2CCN(C(=O)c3ccco3)CC2)n1,-10%
COc1ccc(CNC(=O)CC2C[C@H](C(=O)N3CCOCC3)[C@@]3(CCC4CCCC4)c4[nH]c5ccccc5c4CCN3C2=O)cc1OC (some centres not stated),-25%
Cn1c(=O)c2sccc2n2c(CCCC(=O)NCc3ccco3)nnc12,-27%
CC(=O)CSc1nc(-c2ccccc2)[nH]c1S(=O)(=O)c1ccc(C)cc1,11%
CCCCCCNS(=O)(=O)c1ccc(OC)c(OC)c1,14%
O=C(c1cccc(C(F)(F)F)c1)C1CCCN(Cc2ccc(OCCO)cc2)C1 (configuration not stated),-4%
COc1ccc(Cc2nnc(SC(C)C(=O)Nc3ccc(F)cc3Cl)o2)cc1 (configuration not stated),-24%
Cc1ccc(Sc2ccc([N+](=O)[O-])cc2[N+](=O)[O-])nc1,5%

# (continued)
structure,VDR inhibitor
Cc1ccccc1CN1CCNC(=O)C1CC(=O)NCCN1CCCCC1=O (configuration not stated),-10%
CN1CCN(CC#CCC(O)(c2ccccc2)C2CCCC2)CC1 (configuration not stated),-11%
CC(=O)c1c(N2CCN(C)CC2)[nH]c(-c2ccccc2)nc1=S,94%[activator]
CN1CCc2cc(Cl)c(O)cc2[C@@H](c2ccccc2)C1,1%&4%&-2%&-11%
COc1ccc(N2CCN(CCCNC(=O)C3COc4ccccc4C3)CC2)cc1 (configuration not stated),9%
CSCCC(C(=O)OCC(=O)c1ccc(C)c(C)c1)N1C(=O)c2ccccc2C1=O (configuration not stated),-7%
Cn1c(C(=O)NCc2ccccc2F)cc2oc3ccccc3c21,12%
COc1ccc(NC(=S)N/N=C2/CCCc3c(C)cc(C)cc32)cc1,-13%
COc1cc(C(=O)NC(=S)Nc2ccccc2N2CCOCC2)cc(OC)c1OC,-2%
C/C(=N/NC(=O)CN1CCN(S(=O)(=O)c2ccc(Br)cc2)CC1)c1cccnc1,5%
O=C(OCC(=O)c1c[nH]c2ccccc12)c1cncc(Br)c1,40%[activator]
Nc1nonc1-n1nnc(C(=O)N/N=C/c2cccc(Cl)c2)c1-c1ccc2c(c1)OCO2,9%
COc1c(C)cc(NC(=O)c2ccc3c(c2)NC(=O)CO3)cc1C,-4%
Cc1ccc(-c2nn(CC(=O)N3CCOCC3)c(=O)c3ccccc23)cc1S(=O)(=O)N(C)C,-2%
Cc1ccc(NC(=O)c2ccc3snnc3c2)cc1,-7%
O=C(CSc1nc2c(cnn2-c2ccc(F)cc2)c(=O)[nH]1)Nc1ccccc1C(F)(F)F,-4%
Cc1ccc(S(=O)(=O)n2cc(-c3ccccc3)c3ccccc32)cc1,-8%
CCOc1ccc(NC(=O)CNC(=O)c2cccs2)cc1,7%
COc1ccc(N2CCN(C(=O)CSc3nnc4n3C(C)(C)Cc3ccccc3-4)CC2)cc1,-14%
Cc1ccc(S(=O)(=O)C2(C(=O)Nc3cccc(F)c3)CC2)cc1,-22%

# An excerpt from above in order of formula weight, smallest number first:
structure,VDR inhibitor
Cn1c(C(=O)NCc2ccccc2F)cc2oc3ccccc3c21,12%
COc1ccc(NC(=S)N/N=C2/CCCc3c(C)cc(C)cc32)cc1,-13%
Nc1nonc1-n1nnc(C(=O)N/N=C/c2cccc(Cl)c2)c1-c1ccc2c(c1)OCO2,9%
O=C(CSc1nc2c(cnn2-c2ccc(F)cc2)c(=O)[nH]1)Nc1ccccc1C(F)(F)F,-4%

# Next compounds follow:
structure,VDR inhibitor
COc1cc(C2C(C#N)=C(N)N(Nc3ccccc3)C3=C2C(=O)CC(C)(C)C3)ccc1OCc1cccc(F)c1 (configuration not stated),2%
CC(=O)Nc1ccc2nc(SCCOc3ccccc3Cl)sc2c1,1%
N#CCCn1c(=O)c(-c2ccc(F)cc2)nc2cnc(N3CCOCC3)nc21,0%
Cc1ccc2nc(-c3ccccc3O)c(Nc3ccccc3C)n2c1,-11%
CN(C)C(/C=C/Nc1ccc([N+](=O)[O-])cc1)=C(C#N)C#N,4%
COc1cccc(NC(=O)CN(C)C(C)C(=O)Nc2ccc(S(=O)(=O)N3CCOCC3)cc2)c1 (configuration not stated),6%
C=CCOc1cccc(C2/C(=C(/O)c3ccc(F)cc3)C(=O)C(=O)N2CCN2CCOCC2)c1 (configuration not stated),9%
COC(=O)c1ccc(NC(=O)CCN2CCCCC2)cc1,-6%&5%
Cc1ccc(S(=O)(=O)N2CCN(c3cnn(-c4ccccc4)c(=O)c3Cl)CC2)cc1,19%
O=C(c1cnc(N2CCCCC2)c2ccccc12)N1CCN(c2ccc(F)cc2)CC1,8%
Nc1cc[n+](CC(=O)c2ccccc2)cc1,0%
CC(C)(C)C(=O)[C@@H]1[C@@H]2C(=O)N(c3ccc4c(c3)OCCO4)C(=O)[C@@H]2C2c3ccccc3C=CN21 (some centres not stated),-14%
COc1ccc([C@H]2CC(=O)C=C(c3ccc(CNC(=O)OC(C)(C)C)cc3)C2)cc1,-10%
Cc1ccccc1CN1CCC(CNC(=O)c2c(C)oc3ncnc(N4CCCCC4)c23)CC1,9%
C=CCC[C@@H](Cc1ccc(F)cc1)C(=O)OC[C@@H](Cc1ccccc1)NC(=O)[C@H](CC=C)CC(=O)NCCO,8%
O=C(NCCCN1CCCC1)c1cc2c(Cl)nc3ccccc3c2s1,-9%
CC(Oc1cc2oc(=O)c3c(c2cc1Cl)CCCC3)C(=O)NCc1cccnc1 (configuration not stated),-12%
COC(=O)C(C)n1cnc2c(nnn2Cc2ccc(Cl)cc2)c1=O (configuration not stated),8%
CCC(C)N1C(=O)S/C(=C/c2ccc3c(c2)n(C)c(=O)n3C)C1=O (configuration not stated),-10%

# Structural class, the entries above containing a tert-butyl group
structure,VDR inhibitor
CC(C)(C)C(=O)[C@@H]1[C@@H]2C(=O)N(c3ccc4c(c3)OCCO4)C(=O)[C@@H]2C2c3ccccc3C=CN21 (some centres not stated),-14%
COc1ccc([C@H]2CC(=O)C=C(c3ccc(CNC(=O)OC(C)(C)C)cc3)C2)cc1,-10%

# High-throughput results (PubChem BioAssay)
